# High-throughput results: PubChem, Johns Hopkins Ion Channel Center
# KCNQ2 inh – KCNQ2 potassium channel inhibitors, primary screen, cell-based, CHO-K1, FluxOR thallium flux, B-score (AID 2156); Potassium voltage-gated channel subfamily KQT member 2 (Rattus norvegicus), O88943; 20 min; stronger effect = lower value; only compounds with negative scores are shown here; some inactives read as strong as hits; B-score at 10 µM; 310,000 tested, 1.1% active;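 active = fluorescence ratio B-score at most minus 3 library SDs, with starting brightness B-score within 2 library SDs, cut at about -5.5 in these data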
# Target sequence (O88943 whole entry, looked up): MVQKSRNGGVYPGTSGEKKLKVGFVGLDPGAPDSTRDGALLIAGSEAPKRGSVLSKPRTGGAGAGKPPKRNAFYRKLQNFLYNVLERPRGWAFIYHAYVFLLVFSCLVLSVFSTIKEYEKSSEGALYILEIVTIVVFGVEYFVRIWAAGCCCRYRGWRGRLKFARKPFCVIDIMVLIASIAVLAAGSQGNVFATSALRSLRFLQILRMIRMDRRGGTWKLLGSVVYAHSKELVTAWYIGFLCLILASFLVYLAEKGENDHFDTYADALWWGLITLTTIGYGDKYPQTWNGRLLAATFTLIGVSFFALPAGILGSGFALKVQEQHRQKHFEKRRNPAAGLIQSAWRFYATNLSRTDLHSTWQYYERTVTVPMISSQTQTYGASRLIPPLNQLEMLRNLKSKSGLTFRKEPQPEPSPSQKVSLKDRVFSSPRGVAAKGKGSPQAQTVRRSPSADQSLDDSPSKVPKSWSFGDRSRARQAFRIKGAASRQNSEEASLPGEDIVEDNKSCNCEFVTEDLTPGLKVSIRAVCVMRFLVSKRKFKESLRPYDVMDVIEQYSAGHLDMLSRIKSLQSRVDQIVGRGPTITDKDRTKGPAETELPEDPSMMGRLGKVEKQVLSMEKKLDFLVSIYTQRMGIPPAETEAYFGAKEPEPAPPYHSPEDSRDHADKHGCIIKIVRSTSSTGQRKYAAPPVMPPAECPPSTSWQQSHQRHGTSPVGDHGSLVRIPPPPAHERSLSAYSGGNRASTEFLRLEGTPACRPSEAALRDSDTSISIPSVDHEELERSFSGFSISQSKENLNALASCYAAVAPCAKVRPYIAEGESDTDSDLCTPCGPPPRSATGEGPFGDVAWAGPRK
# KCNQ2 inh baseline – recorded beside KCNQ2 inh, whose call it bears; B-score; measured here: initial fluorescence intensity artifact check;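 brightness before thallium and not channel activity; 0 = typical well and far values either way flag optical interference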
# The depositor's hits bear a star; i = inactive. An excerpt; the hit share may differ from the screen's.
KCNQ2 inh	KCNQ2 inh baseline	compound
i	-1.92	CCOc1ccc(C(=O)O)cn1
i	-0.23	CCC(=O)Nc1ccc(C(=O)Nc2ccc(OC)cc2[N+](=O)[O-])cc1
i	0.04	Cc1ccc(NC(=O)c2ccccc2-c2ccc(C(F)(F)F)cc2)cc1S(=O)(=O)N1CCOCC1
i	-2.2	O=C(Cn1nnc(-c2ccccc2NC(=O)c2ccco2)n1)Nc1ccccc1
i	0.7	O=C(c1[nH]nc2c1CCc1ccccc1-2)N1CCN(Cc2ccc3c(c2)OCO3)CC1
i	-3	COc1cccc(NC(=O)CCNC(=O)N2CC(=O)Nc3ccccc32)c1
i	-0.94	O=C(c1ccc2c3n(nc2c1)-c1ccc(Cl)cc1CO3)N1CCCCC1
i	-0.02	CN1C(=O)/C(=C\c2cc(Br)cs2)c2ccccc21
i	-0.71	O=C(O)C1C2CCC(O2)C1C(=O)Nc1cnn(Cc2ccccc2)c1 (stereo not given)
i	-0.34	Cc1cccc(-n2cc(CN3CCN(c4ccccn4)CC3)c(-c3cccc(F)c3)n2)c1
i	-1.58	CC1(C)OC(c2ccccc2)=C/C(=C\C=N\NC(=O)c2ccncc2)O1
i	1.28	CC1CC1c1ccc(/C=C(\C#N)C(=O)Nc2cc(Cl)ccc2Cl)o1 (stereo not given)
i	-0.01	N#Cc1c(N)n(CCOC(=O)c2cccc(Br)c2)c2nc3ccccc3nc12
i	0.16	CCCN(CCC)CCCNC(=O)c1cn(CC)c2ccc(S(=O)(=O)N3CCOCC3)cc2c1=O
i	-0.58	CC(=O)c1ccc2c(c1)OCCOCCOCCO2
i	2.05	CCC(C)NC(=O)CCSCCC(=O)NC(C)CC (stereo not given)
i	-2.78	CSc1nnc2c(n1)c(C)nn2-c1cccc(C)c1
i	-1.42	Cc1ccc(Cn2ccc(NC(=O)C3C4CCC(C4)C3C(=O)O)n2)cc1 (stereo not given)
i	-0.01	CCN=C1S/C(=C\c2cn(CC)c3ccccc23)C(=O)N1CC
i	1.87	COc1ccc(S(=O)(=O)N(C)CC(=O)N2CCCC2)cc1OC
i	-0.33	O=[N+]([O-])c1ccc2c(c1)C=C1CCCCC1(N1CCCC1)O2 (stereo not given)
i	2.61	Cc1ccc(NC2CCCN(C(=O)CSc3ccccn3)C2)cc1C (stereo not given)
i	-0.11	CCNC(=S)N(CCc1cccc(C)c1)Cc1cc2cc(OC)c(OC)cc2[nH]c1=O
i	0.95	CC(OC(=O)C(C)N1C(=O)C2C3C=CC(C4CC34)C2C1=O)C(=O)c1ccccc1 (stereo not given)
i	-2.56	COCCN(C(=O)COC(=O)c1cc2ccccc2cc1OC)c1c(N)n(Cc2ccccc2)c(=O)[nH]c1=O
i	-0.02	CC(=O)N(c1nnc(-c2cccc(C)c2)s1)C1CCCC1
i	1.36	CC1CCN(c2nc3c(=O)[nH]c(N)nc3n2[C@@H]2O[C@H](CO)[C@@H](O)[C@H]2O)CC1
i	-0.47	Cc1ccc(C)c(NC(=O)CCN2CCCCC2)c1
i	-1.66	CC(C)(C)NC(=O)NC(=O)CN1CCN(c2ncc(C(F)(F)F)cc2Cl)CC1
i	-0.72	CCOC(=O)N1CCN=C1SCc1ccc(C(F)(F)F)cc1
i	0.56	CCOC(=O)c1nc(C)nc(Sc2n[nH]c(-c3cc(Cl)cc(Cl)c3)n2)c1C
i	0.56	CCOC(=O)CC1C(=O)NCCN1S(=O)(=O)c1ccc(Cl)cc1Cl (stereo not given)
i	0.37	CC(=O)N1CCC(=NNc2nc3ccccc3s2)CC1
i	0.12	O=C1CCN(Cc2ccccc2)CCN1[C@H](CSc1ccccc1)Cc1ccccc1
i	-2.72	Cc1nn(-c2ccc(Cl)cc2)c(NC(=O)C(C)C)c(-c2ccccc2)c1=O
i	-1.05	COc1ccc(NC(=O)CSc2ccc3nnc(-c4cccnc4)n3n2)cc1OC
i	2.5	CCn1c2ccccc2c2cc(/C=N/n3c(-c4cc(C)[nH]n4)n[nH]c3=S)ccc21
i	0.8	CCN1C(=O)/C(=C\c2cccn2-c2ccc([N+](=O)[O-])cc2)N(CC)C1=S
i	-2.54	COc1ccccc1Nc1ccc(C(=O)NCc2cccs2)cn1
i	-1.9	NS(=O)(=O)c1cccc(NC(=O)C2CC(=O)N(Cc3ccco3)C2)c1 (stereo not given)
i	-0.01	Cc1cc(=O)c2c(o1)CC(C)(C)CC2=O
i	1.48	CCNc1nc(NCC)n2c(SCC(=O)Nc3ccc(OC(F)F)cc3)nnc2n1
i	0.59	CCOc1ccccc1NC(=O)CCn1c(=O)oc2ccccc21
i	2.33	N#CCCN1CCN(C(=S)c2ccc(-c3cccc(Cl)c3)o2)CC1
i	-1.82	Cc1cc(-n2cccn2)ccc1CN1CCN(CC(C)C)C(CCO)C1 (stereo not given)
i	0.81	COc1cc(=O)n2c(-c3ccccc3)csc2n1
i	1.56	CCOC(=O)N1CCC(=NNC(=O)COc2ccc(OC)cc2)CC1
i	-0.06	CCN(CC)c1ccc(S(=O)(=O)N(CC)CC)cc1NC(=O)c1cccnc1
i	0.6	O=C(OCn1nnc2ccccc2c1=O)C1CCCCC1
i	18	Cc1cc2c(cc1C)NC(c1c(C)n(C)n(-c3ccccc3)c1=O)C1=C(CC(C)(C)CC1=O)N2 (stereo not given)

# Next section
KCNQ2 inh	KCNQ2 inh baseline	compound
-7.58*	-1.1*	COc1ccccc1-c1cc(C(F)(F)F)n2ncc(C(=O)N3CCc4ccccc4C3)c2n1
i	-1.68	Cc1c(Cl)cccc1NC(=O)CNc1ccccc1F
i	0.27	CCOc1ccccc1C(=O)N1c2ccccc2Sc2ccccc21
i	-1.26	CC(C)=CCN1CCN(Cc2ccc(Oc3ncccn3)cc2)CC1CCO (stereo not given)
i	0.66	Cc1ccc(Nc2nc(CSc3nnc(-c4cccs4)o3)cs2)cc1
i	0.29	CCc1ccc(OC(=O)CN2C(=O)c3ccccc3C2=O)cc1
i	1.56	O=C(NCCCN1CCCC1=O)c1ccccc1NS(=O)(=O)c1ccc(Br)cc1
i	-0.33	N/C(=N\c1nc2ccccc2o1)NC(=O)c1ccccc1Br
i	-1.1	COc1cccc(-c2ccnc3[nH]n(-c4ccccc4)c(=O)c23)c1
i	0.53	COc1ccccc1NC(=O)Cc1noc(CSc2n[nH]c(N)n2)n1
i	1.58	CCOC(=O)c1c(NC(=O)COC(=O)Cn2cnc3c2c(=O)n(C)c(=O)n3C)sc(C)c1CC
i	-0.28	Cc1ccc(NC(=O)CNC(=O)c2ccc3c(c2)OCO3)nc1
i	0.55	COC(=O)c1ccc(/C=N/n2cnnc2)cc1
i	-0.35	CN1CCN(c2ccc(NC(=O)N3CCc4ccccc43)cc2)CC1
i	0.54	CCCCOc1ccc(Br)cc1/C(C)=N/NC1=NCCN1
i	0.79	O=C(NCc1ccncc1)c1ccc(Br)cc1
i	-0.47	O=S(=O)(c1ccc2nc(Cc3cccc(C(F)(F)F)c3)[nH]c2c1)N1CCOCC1
i	-0.45	COc1ccc(NC(=O)COC(=O)c2c3c(nc4ccccc24)CCCC3)cc1
i	-1.36	CC1(C)COC(c2ccc(F)c([N+](=O)[O-])c2)=N1
i	0.27	Cc1cc(C)n(-c2ncnc3sc4c(c23)CC(C)CC4)n1 (stereo not given)
i	0.1	NC(Cc1cccc2nsnc12)C(=O)O (stereo not given)
i	-1.18	Cc1ccc([C@@H]2[C@@H]3C(=O)N(C)C(=O)[C@@H]3[C@]3(C)C(=O)N(Cc4ccccn4)CC(=O)N23)o1
i	-0.03	CC(=O)N1CCOc2ccc(S(=O)(=O)NCc3ccc(Cl)cc3)cc21
i	0.16	Cc1ccc(S(=O)(=O)CCC(=O)Nc2cccc(Cl)c2)cc1
i	-1.62	O=C(C1CCCN(S(=O)(=O)Cc2ccccc2)C1)N1CCCCC1 (stereo not given)
i	-0.6	CCCn1c(C)cc(C(=O)COc2ccc(-c3nnco3)cc2)c1C
i	1.78	Cc1nnc2c3ccccc3c(-c3ccc(O)cc3)nn12
i	0.12	O=C(CSc1ccc2ccccc2c1)N1CCN(c2ccc(O)cc2)CC1
i	-0.62	O=C(NC1CCN(C(=S)Nc2ccc(Cl)cc2)CC1)c1ccco1
i	2.38	C=C(C)CNC(=O)C1CCC(=O)N(CCCc2ccccc2)C1 (stereo not given)
i	0.71	CC1CC(=O)N(CC(=O)Nc2ccccc2F)c2ccccc2S1(=O)=O (stereo not given)
i	1.88	O=C(c1ccc(Oc2ccccc2)cc1)c1nc2c(n1O)CCCC2
i	-1.01	Cn1c2ccccc2c2ncn(CCN3CCOCC3)c(=O)c21
i	2.06	CC(C)Nc1nc(Cl)nc(NN(C)c2nc(N(C)C)nc(N(C)C)n2)n1
i	0.69	O=C(NCc1n[nH]c(=S)n1-c1ccccc1)c1ccc(S(=O)(=O)N2CCOCC2)cc1
i	0.62	COc1cc(OC)cc(C(=O)N[C@H](C(=O)OCC(=O)Nc2ccc(C(C)C)cc2)C(C)C)c1
i	-0.4	CN1C[C@H](C(=O)NC2(C)OC3(O)[C@@H]4CCCN4C(=O)[C@H](Cc4ccccc4)N3C2=O)CC2c3cccc4[nH]cc(c34)C[C@H]21 (stereo not given in full)
i	1.24	CCn1c(COc2ccccc2)nnc1SCC(=O)Nc1cc(C)ccc1OC
i	-1.01	COC(=O)c1cccc(NC(=O)Cc2nc(-c3ccccc3)sc2-c2ccc(C)cc2)c1
i	0.42	Cc1ccsc1/C=N/NC(=O)C(=O)NCC(C)C

# Grouped by structure, the compounds so far containing fluorine
KCNQ2 inh	KCNQ2 inh baseline	compound
i	0.04	Cc1ccc(NC(=O)c2ccccc2-c2ccc(C(F)(F)F)cc2)cc1S(=O)(=O)N1CCOCC1
i	-0.34	Cc1cccc(-n2cc(CN3CCN(c4ccccn4)CC3)c(-c3cccc(F)c3)n2)c1
i	-1.66	CC(C)(C)NC(=O)NC(=O)CN1CCN(c2ncc(C(F)(F)F)cc2Cl)CC1
i	-0.72	CCOC(=O)N1CCN=C1SCc1ccc(C(F)(F)F)cc1
i	1.48	CCNc1nc(NCC)n2c(SCC(=O)Nc3ccc(OC(F)F)cc3)nnc2n1
-7.58*	-1.1*	COc1ccccc1-c1cc(C(F)(F)F)n2ncc(C(=O)N3CCc4ccccc4C3)c2n1
i	-1.68	Cc1c(Cl)cccc1NC(=O)CNc1ccccc1F
i	-0.47	O=S(=O)(c1ccc2nc(Cc3cccc(C(F)(F)F)c3)[nH]c2c1)N1CCOCC1
i	-1.36	CC1(C)COC(c2ccc(F)c([N+](=O)[O-])c2)=N1
i	0.71	CC1CC(=O)N(CC(=O)Nc2ccccc2F)c2ccccc2S1(=O)=O (stereo not given)

# More structures
KCNQ2 inh	KCNQ2 inh baseline	compound
i	0.82	Cc1cc(C(=O)N2CCN(C/C=C/c3ccccc3)CC2)no1
i	-0.79	Cc1cc(Cl)ccc1OCCCC(=O)N1CCCc2ccccc21
i	6.01	CC(C)(C)C(=O)/C=c1\s/c(=C\c2ccc(-c3ccc([N+](=O)[O-])cc3)o2)c(=O)n1CC(=O)NC(N)=O
i	-0.22	COc1ccc(C(=O)c2ccc(N3CCOCC3)cc2)c(OC)c1
i	-2	Cc1ccc(-c2cnc(C3CC3)o2)cc1S(=O)(=O)Nc1ccccc1
i	1.71	CC(CNCc1ccc2c(c1)OCO2)NCc1ccc2c(c1)OCO2 (stereo not given)
i	-0.52	COc1ccc(OC)c(CNc2ccc3c(c2)CCC3)c1
i	-0.05	Cc1ccc(C2=NN(C(=O)CSc3nc(N)cc(N)n3)C(c3ccco3)C2)cc1 (stereo not given)
i	0.06	CSc1nnc(-c2cc(-c3ccc(C)cc3)nc3ccccc23)o1
i	-0.67	O=C(Cn1cnc2cc([N+](=O)[O-])ccc2c1=O)NC(=O)NCc1ccccc1
i	0.01	ClC(/C=N/n1cnnc1)=C/c1ccccc1
i	-0.05	COc1ccc(-c2nnc(SCC(=O)NCc3ccco3)n2C)cc1
i	-0.84	c1ccc2c(c1)nc(NCC1CCCO1)c1nnnn12 (stereo not given)
i	-0.07	CCOC(=O)c1ccc(CN(Cc2ccccc2)S(=O)(=O)c2cccc([N+](=O)[O-])c2)cc1
i	1.01	COc1ccc(Cn2c(SCc3ccc(C)cc3)nc3cc(OC)c(OC)cc3c2=N)cc1Cl
i	-1.2	Clc1ccccc1CSc1ncn(-c2ccccc2)n1
i	-1.12	O=C(CC12CC3CC(CC(Br)(C3)C1)C2)Nc1cccc(S(=O)(=O)NC2=NCCC2)c1
i	0.03	COc1ccc(S(=O)(=O)N2CCN(C)CC2)cc1C(=O)Nc1ccccc1
i	0.76	COC(=O)[C@@]1(Cc2ccc(F)cc2)[C@H]2c3cc(C(=O)N4CCCC4)n(CCCNc4ncc(C(F)(F)F)cc4Cl)c3C[C@H]2CN1C(=O)c1ccccc1
i	-0.38	Cn1ccsc1=NC(=O)c1ccc(Cl)cc1

# Brought forward from above: 2 compounds, followed by the next part.
KCNQ2 inh	KCNQ2 inh baseline	compound
i	0.76	COC(=O)[C@@]1(Cc2ccc(F)cc2)[C@H]2c3cc(C(=O)N4CCCC4)n(CCCNc4ncc(C(F)(F)F)cc4Cl)c3C[C@H]2CN1C(=O)c1ccccc1
i	-0.38	Cn1ccsc1=NC(=O)c1ccc(Cl)cc1
i	0.49	O=S(=O)(c1ccc(Br)s1)N1CCN(Cc2ccc3c(c2)OCO3)CC1
i	0.48	O=C(NCC(c1ccco1)N1CCN(c2ccccc2F)CC1)c1ccc2c(c1)OCO2 (stereo not given)
i	-1.06	COc1cc(COC(=O)c2cnc(C)cn2)c(OC)cc1Br
i	0.79	Cc1cc(C)c2c(N)c(C(=O)Nc3ccccc3F)sc2n1
i	-1.07	COC(=O)c1oc2ccc(OC)cc2c1N
i	2.18	CCCc1nnc(NC(=O)CCC(=O)N2CCN(C3CCCC3)CC2)s1
i	0.72	CCOC(=O)C1C(=O)C=C(C)C(C(=O)OCC)C1c1ccc(OC)cc1 (stereo not given)
i	-1.46	Cc1ccc(C2=NOC(=O)/C2=C\c2ccc(C)o2)cc1
i	2.43	O=C(O)CSCc1nc2cccnc2n1C1CCCCC1
i	0.06	Cc1nc(NC(=O)CSc2cc(C)c3ccccc3n2)c(Cl)cc1Cl
